Assay outcomes: PubChem, several laboratories
RecA splice inh = Mtb RecA intein splicing inhibitors, primary screen, biochemical, fluorescence, HTS; inhibition, %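 (about 9 µM by stock and volumes)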; actives 0.75% (n = 290,000); cell-free RecA intein splicing; Protein RecA (Mycobacterium tuberculosis (strain ATCC 25618 / H37Rv)), P9WHJ3; in the data active = inhibition above about 30%; inconclusive = no clear call, values can overlap the other calls;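 note: 0% = vehicle wells and 100% = reference inhibitor control wells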
Target sequence (P9WHJ3 whole entry, looked up, canonical isoform): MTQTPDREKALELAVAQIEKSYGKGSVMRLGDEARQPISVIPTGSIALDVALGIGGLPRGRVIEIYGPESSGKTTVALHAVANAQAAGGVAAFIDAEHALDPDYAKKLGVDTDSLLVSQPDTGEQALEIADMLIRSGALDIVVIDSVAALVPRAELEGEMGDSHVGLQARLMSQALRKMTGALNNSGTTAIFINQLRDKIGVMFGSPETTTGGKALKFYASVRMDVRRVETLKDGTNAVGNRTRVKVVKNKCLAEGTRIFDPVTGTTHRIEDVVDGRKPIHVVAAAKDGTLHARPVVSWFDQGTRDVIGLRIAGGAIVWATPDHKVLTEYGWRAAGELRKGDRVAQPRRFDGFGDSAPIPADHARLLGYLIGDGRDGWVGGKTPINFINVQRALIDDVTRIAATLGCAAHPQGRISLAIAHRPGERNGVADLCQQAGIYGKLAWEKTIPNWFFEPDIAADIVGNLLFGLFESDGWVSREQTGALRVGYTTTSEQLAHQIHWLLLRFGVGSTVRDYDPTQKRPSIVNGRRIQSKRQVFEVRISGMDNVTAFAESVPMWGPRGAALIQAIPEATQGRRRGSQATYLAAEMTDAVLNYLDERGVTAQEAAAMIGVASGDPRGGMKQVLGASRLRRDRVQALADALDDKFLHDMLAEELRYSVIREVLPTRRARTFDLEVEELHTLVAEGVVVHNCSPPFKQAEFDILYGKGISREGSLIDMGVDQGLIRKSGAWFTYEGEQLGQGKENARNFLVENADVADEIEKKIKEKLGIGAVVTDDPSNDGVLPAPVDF
Arbovirus anti = antivirals against arbovirus infection, primary screen, cell-based, full library, 10K replicate subset | actives 0.37% (n = 200,000) | inhibition, % at 10 µM | arbovirus infection cell-based antiviral screen;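 active = inhibition from about 30%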;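 note: bluetongue infection of BSR cells; cell survival read as ATP light after 72 h; 0% = infected wells without compound and 100% = uninfected wells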
Mtb growth = M. tuberculosis H37Rv growth inhibitors, H37Rv strain (AID 1626) | M. tuberculosis H37Rv growth inhibition; higher % means a stronger effect | one-dose inhibition, % at 10 µM; IC50 in µM for titrated hits | actives 0.95% (n = 220,000);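 active = confirmed in a dose series; inconclusive = inhibition above 80% but not taken into the dose series; inactive = below 80% or under 30% at every dose of the series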;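 note: bacteria incubated seven days before Alamar blue readout; 0% = bacteria only wells and 100% = bacteria with antibiotic wells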
YopH inh = YopH tyrosine phosphatase inhibitors, primary screen, biochemical, fluorescence Ex485/Em525; inhibition, %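 (about 10 µM by stock and volumes)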; actives 0.16% (n = 140,000);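 active = inhibition of 50% or more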;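 note: controls were vehicle for no effect and minimum signal wells for full effect; inactives centre near -20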
Mtb bLac sens = beta-lactam sensitization of Mtb H37Rv, H37Rv; M. tuberculosis H37Rv growth with meropenem, percent inhibition; hits of this screen are not shown here; inhibition, % at 25 µM; actives 0.27% (n = 330,000);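 active = about 74% or more and at least 40 points above the plate without the antibiotic, then above 30% in a dose series; inconclusive = first-round hits that could not be retested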;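 note: growth measured after seven days incubation then overnight dye step; 0% = bacteria only wells and 100% = bacteria with antibiotic; twin plates without the antibiotic show which effects depend on it; some results filed as inactive read as strong as hits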
Arbovirus anti repeat = recorded beside Arbovirus anti, whose call it bears; inhibition, %; measured here: 10K subset replicate screen; many hits read low in the repeat;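 first of two repeat runs on a subset; 0% = infected and 100% = uninfected wells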
* hit, by the source's call; ? = inconclusive; nt = not tested or not shown. This is a subset; rates above refer to the full screens.

SMILES	RecA splice inh	Arbovirus anti	Mtb growth	YopH inh	Mtb bLac sens	others
NC(=O)C(c1cccc(Cl)c1)c1ncc(C(F)(F)F)cc1Cl (stereo unspecified)	-1.7	-6	-3%	-24	-14
CC1CCCN(S(=O)(=O)c2ccc(C(=O)Nc3nnc(-c4ccco4)o3)cc2)C1 (stereo unspecified)	-1.4	nt	nt	nt	89
CCOc1ccccc1-n1c(SCC(=O)N2CCCC2)nnc1-c1ccc(O)cc1	-0.7	9	-4%	-20	-3
COc1nc(-c2ccc(Cl)cc2)ccc1-c1noc(-c2ccco2)n1	-3.3	-13	-2%	-14	10
CCOC(=O)c1nn(-c2ccc(C)c(Cl)c2)c(=O)c(C#N)c1C	11	nt	nt	nt	-1
Cc1ccc2[nH]c3c(c2c1)CN(C(=O)CN1CCN(Cc2ccc4c(c2)OCO4)CC1)CC3	-8.4	0	17%	4	94
O=C(CSc1ncnc2ccccc12)Nc1cc(S(=O)(=O)N2CCCCC2)ccc1Cl	1.4	7	5%	-26	-7
C=C(C(=O)c1ccccc1)C(C)C(=C)C(=O)c1ccccc1	3.1	-21	12%	1	59
COc1ccc(S(=O)(=O)Nc2ccccc2C(=O)NC(C)(C)C)cc1OC	-2.4	5	3%	-10	-4
COc1ccccc1NC(=O)/C(C#N)=C/c1ccncc1	0.4	nt	nt	nt	-6
Cc1ccc2nc(-c3ccccc3)cc(C(=O)NCC3CCCO3)c2c1 (stereo unspecified)	3.6	nt	6%	nt	3
COc1cccc(NC(=O)Cn2nnc(C(=O)Nc3cc(Cl)ccc3OC)c2N)c1	-3.7	nt	nt	nt	2
COc1cc(-c2nnc3n(CCc4ccccc4)c(=O)c4ccccc4n23)cc(OC)c1OC	-2.6	3	-1%	0	-1
O=C(Nc1ccccc1)c1cnc2n(c1=O)CCS2	0.5	17	5%	-24	0	Arbovirus anti repeat=3
CCN(CC(=O)Nc1ccc(NC(C)=O)cc1)C(=O)COc1ccc(C(=O)c2ccccc2)cc1	-3.1	-2	2%	-32	-1
COc1ccc(-c2noc(CSc3nnc(-c4ccncc4)n3-c3ccc(F)cc3)n2)cc1OC	nt	3	-6%	-23	2
C=C(C)C1CC=C(CN2CC(C)OC(C)C2)CC1 (stereo unspecified)	-0.9	1	-1%	-12	0
CNc1nc(SC)nc(N(C#N)CC(=O)OC)n1	8.1	5	nt	-13	2
O=C(NC1=NCCS1)c1ccc(Cl)s1	0.5	-1	3%	28	1
Nn1c(SCC(=O)Nc2nccs2)nncc1=O	-2.0	-2	-5%	nt	-6

Continued; it opens with the five that closed the last part.
SMILES	RecA splice inh	Arbovirus anti	Mtb growth	YopH inh	Mtb bLac sens	others
COc1ccc(-c2noc(CSc3nnc(-c4ccncc4)n3-c3ccc(F)cc3)n2)cc1OC	nt	3	-6%	-23	2
C=C(C)C1CC=C(CN2CC(C)OC(C)C2)CC1 (stereo unspecified)	-0.9	1	-1%	-12	0
CNc1nc(SC)nc(N(C#N)CC(=O)OC)n1	8.1	5	nt	-13	2
O=C(NC1=NCCS1)c1ccc(Cl)s1	0.5	-1	3%	28	1
Nn1c(SCC(=O)Nc2nccs2)nncc1=O	-2.0	-2	-5%	nt	-6
Cc1cc(C)n(-c2cc(-c3ccccc3)nc(C)n2)n1	nt	5	-2%	-18	2
Cc1cc(O)c(C(C)C)cc1NC(=O)Nc1cccc2ccccc12	-1.2	nt	-13%	nt	-6
COc1ccc2c(c1)c(=O)oc1cc(OCC(=O)NC3CC3)ccc12	-0.5	-18	-5%	9	9
Cc1nnc(SCCC(=O)Nc2nc(-c3ccccc3)ns2)s1	-0.2	21	-4%	-1	4
O=C(CN1CCN(S(=O)(=O)c2ccc(Cl)s2)CC1)N1CCOCC1	2.5	nt	-4%	nt	-9
N#CC1=C(S)N(c2ccccc2)C(c2ccc(-c3cc(Cl)ccc3Cl)o2)NC1=O (stereo unspecified)	28	0	9%	-35	43
COc1cccc2c1OC1(C)CC2NC(=O)N1c1cccc(C(=O)N2CCN(c3ccccc3)CC2)c1 (stereo unspecified)	2.2	7	5%	nt	-6
Cc1cc(OCC(=O)NC(C)c2ccccc2)ccc1[N+](=O)[O-] (stereo unspecified)	2.5	4	4%	nt	4
CCn1c(SCc2nc3sc(C(=O)O)c(C)c3c(=O)[nH]2)nc2ccccc21	0.1	30	nt	-4	-6
COc1cc(NC(=O)c2cc3ccccc3cc2OC)ccc1NC(=O)c1cccs1	0.8	nt	nt	nt	4
COc1ccc(Nc2nc(N)nc(CN3CCOCC3)n2)cc1	3.6	-2	1%	-53	2
O=C(CCN1C(=O)C2C3CC(C(Br)C3Br)C2C1=O)OCC(=O)c1ccccc1 (stereo unspecified)	-1.5	-3	4%	-21	-4
Cc1cc(C(=O)N2CCN(c3ccc(C(F)(F)F)cn3)CC2)c(C)o1	2.6	nt	5%	nt	1
CCN1C(=O)C(CC(=O)Nc2ccc(F)cc2)N(Cc2ccc3c(c2)OCO3)C1=S (stereo unspecified)	-0.8	-16	0%	nt	-10
Cc1[nH]c2ccccc2c(=O)c1SC(F)(F)C(F)C(F)(F)F (stereo unspecified)	0.3	2	2%	-9	-2
[O-][n+]1c2ccccc2c2n1CCN=C2c1ccc(Cl)cc1	-0.2	nt	nt	nt	17
CCC(C)(C)NC(=O)COc1ccc(OCc2ccccc2)cc1	-3.3	4	-4%	nt	-12
CNC(=S)N(Cc1cc2cc(OC)c(OC)cc2[nH]c1=O)C1CCCC1	1.0	-8	1%	nt	4
CCN1CCN(CC(=O)Nc2ccc(Cl)c(S(=O)(=O)N(C)C)c2)CC1	-2.2	4	-11%	nt	-3
O=C1CC(C(=O)Nc2nccs2)C(c2ccccc2)O1 (stereo unspecified)	-0.6	-4	-6%	nt	-4	Arbovirus anti repeat=-1
COCCN(C(C)=O)c1nnc(-c2ccccn2)s1	-0.5	8	-11%	-32	-6
CC(C)CCN1C(Nc2ccccc2)=NC[C@@H]1CC(C)C	-0.4	nt	nt	nt	-7
O=S(=O)(Nc1ccc(Br)cc1)c1cccc2cccnc12	0.8	nt	nt	nt	-1
CCOc1ccc(N(CC(=O)N/N=C/c2cc(Br)c(C)o2)S(C)(=O)=O)cc1	-3.0	1	-9%	nt	3
Cc1ccc(NC2=CC(=O)CC(c3ccc(Cl)cc3)C2)cc1 (stereo unspecified)	1.5	1	13%	-12	-2
FC(F)(F)c1ccc2c(c1)NP(=S)(N1CCOCC1)c1nccn1-2 (stereo unspecified)	0.0	-3	-1%	-56	-6
CC(C(=O)N1CCOCC1)N1C(=O)c2ccccc2C1=O (stereo unspecified)	0.2	5	2%	-5	-5
[O-]/C(=C(\C(=S)NCCN1CCOCC1)[n+]1ccccc1)c1ccc(Cl)s1	-1.2	2	2%	nt	-1
CCN1C(=O)CSc2ccc(C(=O)NCc3ccco3)cc21	1.1	-3	8%	-44	-1
CN1CCN(c2ccc(S(=O)(=O)N3CCCCC3)cc2NC(=O)COc2ccc(F)cc2)CC1	0.4	nt	nt	nt	-3
CS(=O)(=O)n1nc(-c2cccnc2)nc1NCc1ccccc1	nt	-9	-10%	nt	0
c1ccc2c(C3=NNC(=NC4CC4)SC3)c[nH]c2c1	0.1	0	-4%	-35	1
COc1ccccc1C1=NOC(CN2C(=O)c3ccccc3S2(=O)=O)C1 (stereo unspecified)	-2.5	nt	-11%	nt	-6
O=C(NC1CCCCC1)C(c1ccc(O)c(O)c1)N(C(=O)Cn1nnc2ccccc21)c1cccc(O)c1 (stereo unspecified)	2.1	-5	-12%	nt	-4
Cc1cc(Cl)ccc1Oc1ccccc1C(=O)CC#N	7.4	-11	-5%	nt	7
COc1ccccc1NS(=O)(=O)c1cc(NC(=O)Nc2cccc(C)c2)ccc1N1CCCCC1	-0.4	14	12%	-32	-2
C=CCS/C(N)=N\N=C\c1cc(Br)cc([N+](=O)[O-])c1O	1.2	nt	-5%	nt	61
COc1ccccc1N1CCN(C(=O)c2ccc3nc[nH]c3c2)CC1	-4.8	8	3%	-26	-12
COc1ccc(CC(=O)c2ccc(O)cc2O)cc1	0.8	nt	13%	nt	-3
COC(=O)c1c(C)[nH]c(C(=O)C(C)OC(=O)C2=NNC(=O)CC2)c1C (stereo unspecified)	1.2	nt	-3%	nt	-8

Entries above that contain fluorine (7):
SMILES	RecA splice inh	Arbovirus anti	Mtb growth	YopH inh	Mtb bLac sens	others
NC(=O)C(c1cccc(Cl)c1)c1ncc(C(F)(F)F)cc1Cl (stereo unspecified)	-1.7	-6	-3%	-24	-14
COc1ccc(-c2noc(CSc3nnc(-c4ccncc4)n3-c3ccc(F)cc3)n2)cc1OC	nt	3	-6%	-23	2
Cc1cc(C(=O)N2CCN(c3ccc(C(F)(F)F)cn3)CC2)c(C)o1	2.6	nt	5%	nt	1
CCN1C(=O)C(CC(=O)Nc2ccc(F)cc2)N(Cc2ccc3c(c2)OCO3)C1=S (stereo unspecified)	-0.8	-16	0%	nt	-10
Cc1[nH]c2ccccc2c(=O)c1SC(F)(F)C(F)C(F)(F)F (stereo unspecified)	0.3	2	2%	-9	-2
FC(F)(F)c1ccc2c(c1)NP(=S)(N1CCOCC1)c1nccn1-2 (stereo unspecified)	0.0	-3	-1%	-56	-6
CN1CCN(c2ccc(S(=O)(=O)N3CCCCC3)cc2NC(=O)COc2ccc(F)cc2)CC1	0.4	nt	nt	nt	-3

Further structures follow:
SMILES	RecA splice inh	Arbovirus anti	Mtb growth	YopH inh	Mtb bLac sens	others
CN(c1ccc(OCC(=O)OCC(=O)Nc2c(F)c(F)c(F)c(F)c2F)cc1)S(=O)(=O)c1ccc(F)cc1	5.2	3	-1%	-2	1
CCOc1ccccc1C1CC(c2cccc(NS(C)(=O)=O)c2)=NN1C(=O)c1ccccc1 (stereo unspecified)	12	-18	-3%	-14	-1
Cc1ccc(OCCN2CCN(C(=O)CCC(=O)Nc3nnc(C(C)C)s3)CC2)cc1	-0.7	8	8%	-26	10
O=C(CSC1=NS(=O)(=O)c2cc(Cl)ccc2N1)Nc1ccccc1C(F)(F)F	0.3	nt	nt	nt	-4
CCN1CCC(NCC2CCCCC2)CC1	0.0	nt	nt	nt	4
COc1ccc2oc(C(=O)OCC(=O)N3CCN(S(=O)(=O)c4ccc(C)cc4)CC3)c(C)c2c1	3.1	nt	nt	nt	-16
CCNC(=S)Nc1ccc(OC(F)(F)F)cc1	-3.0	1	-1%	nt	-9
Cc1ccc(C)c(NCC(O)c2ccccc2)c1 (stereo unspecified)	-2.3	17	-5%	nt	1
Cc1nc(SCc2ccc(OCCC(C)C)cc2)n[nH]1	-0.7	-9	8%	nt	14
COc1cc2sc3ccc(C#Cc4ccc(N)cc4)cc3c(=O)c2cc1OC	-2.1	nt	-1%	nt	-10
Cc1c(C(=O)Nc2nc3ccccc3[nH]2)oc2ccc(Br)cc12	2.9	-20	?	-25	89
COc1ccc(N(C)S(=O)(=O)c2cccc(C(=O)NCC3CCCO3)c2)cc1 (stereo unspecified)	-2.0	3	5%	-7	-13
CCOc1ccc(CCNC(=O)COC(=O)c2cc(OC)cc(OC)c2)cc1OCC	3.4	-1	4%	nt	-6
COc1ccc(C2/C=C\CN(S(=O)(=O)/C=C/c3ccccc3)CC(=O)N2Cc2ccc(F)cc2)cc1 (stereo unspecified)	-0.9	nt	2%	nt	-2
